# LT uptake inh = qHTS Assay for Anthrax Lethal Toxin Internalization | Potency, µM (highest dose often 40 µM), for the others: at the top dose activity change, negative = inhibition, most hits filed as inhibitors | Cells, anthrax lethal toxin internalization, FRET ratio (460/530) | 70,000 compounds, 0.67% hits; active = well fitted falling ratio curve with the 530 nm signal flat; inconclusive = other ratio curves, or a change in one channel alone; inactive = flat curves in the ratio and both channels; the % refers to the ratio; further: on the % scale 0 is the no-effect control and ±100 the full control effect; nearly all actives have a fitted effect of over 50% in size; tested in ME-180 cells; beta-lactamase reporter
# Prx2 Sm inh = Schistosoma Mansoni Peroxiredoxins (Prx2) | 65,000 compounds, 0.07% hits | Potency, µM | Schistosoma mansoni peroxiredoxin 2 (Prx2) | AID 448, 2006 | S. mansoni Prx2 activity coupled to TGR/GSH (TGR is thioredoxin glutathione reductase), NADPH fluorescence loss, qHTS; some inactives read as strong as hits; active means full or partial inhibition curve with a strong effect at the top dose; inconclusive means weaker partial or single-point curve; inactive means no accepted curve; further: series up to 57 µM; many of its hits are not listed in these tables
#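 Enzyme mix: 100 uM NADPH, 25 nM TGR, 700 uM GSH, 50 nM Prx2 in 100 mM phosphate pH 7.4, 10 mM EDTA, 0.01% Tween-20. 15 min RT with compound; NADPH/GSH added, H2O2 starts reaction; NADPH fluorescence read 8 min.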
# * hit, by the source's call; ? = inconclusive; nt = not tested or not shown; [ ] = dose if it differs, or a comment. Potency means the concentration at half of the fitted maximal effect. Only part of the results is shown. The share of hits here may be higher or lower than overall.
SMILES,LT uptake inh,Prx2 Sm inh
CC(=O)c1cnc2nc(C)nn2c1C,?,>57
Cc1ccc(N2C(=O)NC(=O)C3(Cc4ccccc4N4CCCC43)C2=O)cc1 (stereo not given),-3%,>57
COCC(=O)N1CCC[C@@]2(CCN(c3ncccn3)C2)C1,3%,>57
C[C@@]1(C(NC(=O)Cc2ccccc2)c2ccc(-c3ccccc3)cc2)C[C@H]1C1CCCCC1 (stereo not given in full),-9%,>11
COc1ccc(NC(=O)CCNC(=O)Cn2cnc3ccccc3c2=O)c(OC)c1,6%,>57
CNc1ccc(C(O)(C(F)(F)F)C(F)(F)F)cc1C(O)(C(F)(F)F)C(F)(F)F,?,nt
CCOC(=O)C(C)Sc1nnc(Cc2cc(=O)[nH]c(=O)[nH]2)n1-c1cccc(OC)c1 (stereo not given),3%,>57
Cc1cc(C)nc(N2CCCC(C(=O)NCCc3ccc(F)cc3)C2)n1 (stereo not given),-4%,>57
NC(=O)CSc1nnc(-c2cc3ccccc3o2)n1Cc1ccccc1,12%,>57
CCOc1ccc(-c2[nH]ncc2Oc2ccccc2OCC)c(O)c1,?,>57
Nc1cc(N)nc(SCc2cccnc2)n1,-1%,>57
Cc1ccccc1Cn1nc(C)c(NC(=O)c2cc(-c3cccs3)on2)c1C,?,>57
COc1ccc(N2CCN(c3nc(NCCc4ccc(OC)c(OC)c4)nc(OC)n3)CC2)cc1,?,>57
O=C(NCCCC(=O)N1CCOCC1)c1cccnc1,?,>57
C=CCn1c(SCc2ccccc2C#N)nnc1-c1ccccc1O,-1%,>57

# 3 compounds picked at random from those above:
SMILES,LT uptake inh,Prx2 Sm inh
Nc1cc(N)nc(SCc2cccnc2)n1,-1%,>57
C[C@@]1(C(NC(=O)Cc2ccccc2)c2ccc(-c3ccccc3)cc2)C[C@H]1C1CCCCC1 (stereo not given in full),-9%,>11
C=CCn1c(SCc2ccccc2C#N)nnc1-c1ccccc1O,-1%,>57

# More structures:
SMILES,LT uptake inh,Prx2 Sm inh
NC(=O)NC(N)=O,-17%,nt
COc1ccc(S(=O)(=O)NCCC(=O)NCc2cccs2)cc1,1%,>57
O=C(CSc1nc2ccccc2n1CC(=O)N1CCCC1)Nc1nccs1,2%,>57
CCNc1nc2nonc2nc1NCC,?,>57
CCOC(=O)C1CCN(C(=O)c2cnn3c(C)cc(C)nc23)CC1,-3%,>57
CCCCCn1c(S(=O)(=O)O)nc2ccccc21,-5%,>57
CCn1c(=O)cc(SCC(=O)N2CCN(C(=O)c3ccco3)CC2)c2ccccc21,-11%,>57
CC(=O)Nc1nc(C)c(Cc2ccccc2)c(=O)[nH]1,9%,>57
CCC(CC)C(=O)NCc1ccccc1Cl,1%,>57
O=C(NCCn1cccc1)c1cccc2ccccc12,5%,>57
COC(=O)c1c(NC(=O)CSc2nncs2)sc2c1CCCCC2,2%,>57
C/C(=C\c1ccco1)C1C(C#N)=C(N)Oc2n[nH]c(-c3ccccc3)c21 (stereo not given),?,>57
CCCCCN(C(=O)NC(=O)NCCCC)S(C)(=O)=O,?,>57
CCC(=NCc1cccnc1)c1c(O)n(C2CCCCC2)c(=O)[nH]c1=O,2%,>57
CS(=O)(=O)N(CC(=O)N1CCCC1)c1cccc(Cl)c1,6%,nt
c1csc(CN2CC3(CCNCC3)C2)n1,-6%,>57
O=C(COc1ccc2c(c1)OCO2)Nc1ccc2c(c1)oc1ccccc12,0%,>57
CCn1c(SCC(=O)N2CCN(c3ccc(Cl)cc3)CC2)nc2ccccc2c1=O,-10%,>57
CN(C)CCNC(=O)NC1CCCCC1,-7%,>57
COc1ccccc1C(=O)Oc1ccc(N2C(=O)CCC2=O)cc1,?,>57
CCOC(=O)N1CCC(NC(=O)c2cc3cc4cc(OC)ccc4nc3o2)CC1,5%,>57
O=C(CSc1ccc2nnc(-c3ccccn3)n2n1)NCC1CCCO1 (stereo not given),11%,>57
COC(=O)[C@H](C)NC(=O)NCc1ccccc1F,-6%,>57
CCS(=O)(=O)NCCc1csc(-c2ccccc2)n1,-1%,>57
O=C(CCCCn1c(=O)c2ccccc2n(CC(=O)NC2CCCC2)c1=O)NC1CCCC1,0%,>57
C=CCOC(=O)C(C(C)=O)C(NC(=O)OC)c1cccc(C)c1 (stereo not given),-6%[8 µM],nt
CN1CCN(c2nc(-c3ccoc3)nc3ccccc23)CC1,-16%,>57
Cc1ccc(S(=O)(=O)/N=C(\CN2CCOCC2)N2CCCC2)cc1,?,>57
Cc1ccc(C(NC(=O)N2CCOCC2)=C(Cl)Cl)cc1F,8%,nt
Nc1nc(OCc2ccccc2)c2[nH]cnc2n1,-3%,>57

# Already shown: 2 of the compounds above.
SMILES,LT uptake inh,Prx2 Sm inh
Cc1ccc(C(NC(=O)N2CCOCC2)=C(Cl)Cl)cc1F,8%,nt
Nc1nc(OCc2ccccc2)c2[nH]cnc2n1,-3%,>57

# Later entries
SMILES,LT uptake inh,Prx2 Sm inh
Cc1nc(NCCO)c2nc(-c3ccccc3)n(CCN(C)C)c2n1,-3%,nt
Cc1c2c(n3c(nc4ccccc43)c1C#N)N(Cc1ccccn1)CC2,5%,>57
CC(C)C[C@@H](CC(=O)N[C@@H](CCC(=O)O)CC(=O)O)NC(=O)[C@@H]1CCCC[C@H]1NC(=O)C[C@@H](NC(=O)C[C@H](Cc1c[nH]c2ccccc12)NC(=O)[C@@H]1CCCC[C@H]1N)C(C)C,-16%,>57
COCC(=O)N1CCC2(CC1)CCN(c1ccccc1)CC2,14%,>57
c1ccc(CSc2nnc(-c3c[nH]c4ccccc34)o2)cc1,?,>57
O=C(c1cnn2c(C(F)F)cc(-c3ccccc3)nc12)N1CCSCC1,4%,>57
O=C(NCc1ccco1)c1ccc(CN2CCOCC2)cc1,-8%,nt
O=c1ccc(Br)c[nH]1,21%,>57
CCOc1ccc2ccccc2c1C(=O)N[C@@H]1C(=O)N2[C@@H]1SC(C)(C)[C@@H]2C(=O)O,4%[3.58 µM],>57
Cc1cccnc1NC(=O)C(C)Oc1ccccc1 (stereo not given),5%,>57
Cc1cc(Nc2ccc(Br)cc2)n2nc(C)nc2n1,?,>57
Cc1cc(C)nc(SCc2ccccc2C#N)n1,-10%,nt
CCCNc1cc(=O)n(C)c(=O)n1C,6%,nt
CC(C)n1c(CN2CCN(C)CC2)nc2c1c(=O)n(C)c(=O)n2C,1%,>57
CCOc1ccc(-c2nc(CSCC(=O)N3CCN(C(=O)c4ccco4)CC3)c(C)o2)cc1,-22%,>57
O=C(O)[C@@H](O)c1ccc(F)cc1,-8%[8 µM],>57
O=C(c1ccncc1)N1CCC2(CCN(Cc3nccs3)CC2)CC1,19%,>57
COc1ccccc1CCn1c(=O)cnc2cncnc21,-11%,>57
Cc1cc(NC(=O)c2cccc(COc3ccc(Br)cc3)c2)no1,?,>57
CO/N=C(\C(=O)N[C@@H]1C(=O)N2C(C(=O)[O-])=C(C[N+]3(C)CCCC3)CS[C@@H]12)c1csc(N)n1,2%[3.58 µM],>57
CCN(CC(=O)Nc1ccc(S(N)(=O)=O)cc1)S(=O)(=O)c1cc(C)ccc1OC,nt,>57
CC1(C)CC(=O)C(CCC(=O)c2ccccc2)C(C)(C)N1 (stereo not given),1%,>57
C[C@H]1CC[C@@]2(NC1)O[C@@H]1C[C@@H]3[C@@H]4CC=C5C[C@@H](O)CC[C@]5(C)[C@@H]4CC[C@]3(C)[C@H]1[C@@H]2C,11%[8 µM],>57
COc1ccc2c(c1OC)C(=O)N1C2SC[C@H]1C(=O)NC1CC(C)(C)NC(C)(C)C1 (stereo not given in full),-3%,>57
Brc1ccc(-c2nc(-c3ccccn3)no2)o1,-13%,nt
COC(=O)C1=C(NC(=O)c2cccc(OC)c2)CCS1,9%,>57
COc1ccc(Cl)cc1-n1c(N)c(C(N)=O)sc1=S,5%,>57
CCOCC(=O)Nc1nnc(C2CCCCC2)s1,2%,>57
COc1ccc(Oc2c(C)oc3cc(OC(=O)N4CCOCC4)ccc3c2=O)cc1,-16%,>57
CCOC(=O)Cc1nnc2c(Nc3ccccc3F)nc3nonc3n12,-19%,>57
Cn1c(=O)n(CCN2CCOCC2)c(=O)c2c1nc1n2CCCN1c1ccccc1,-13%,>57
O=C(Nc1nc2ccc(S(=O)(=O)N3CCCC3)cc2s1)C1CCCO1 (stereo not given),1%,>57
Cc1ccccc1CSc1nnc(-c2cccnc2)n1N,-27%,>57
O=S(=O)(c1ccccc1)N1CCC2(CC1)CN(c1ccncc1)C2,-5%,>57
Cc1cc(N2C(=O)C(O)=C(C(=O)c3ccco3)C2c2cccnc2)no1 (stereo not given),4%,>57
CCCCCn1c(=O)[nH]c2cc(C(=O)NCCCN3CCCCC3)ccc2c1=O,-8%,>57
Cc1ccc(NC(=O)CN(C)S(=O)(=O)c2cccc3nsnc23)cc1C,-3%,>57
O=C(Nc1ccccc1)NC1CCN(Cc2nnnn2C2CCCCC2)CC1,3%,>57
COc1ccc(-n2c(=O)c(CCc3ccccc3)nc3cnc(N4CCN(C)CC4)nc32)cc1,?,>57
COc1cc(Cn2cnnn2)ccc1O,-3%,>57
Cc1cc(C)n2nc3nc(N4CCCC4)nc(-c4ccccc4)c3c2n1,2%,>57
COC(=O)c1[nH]c2ccc(C)cc2c1NC(=O)CN1CCCc2ccccc21,-17%,>57
COc1ccc(-c2nc(CS(=O)CC(=O)NCc3ccco3)c(C)o2)cc1 (stereo not given),5%,>57
O=c1[nH]c(N2CCc3ccccc3C2)nc2c1CCCC2,9%,>57
CC1CN(c2cc3nccnc3cc2F)CC(C)O1 (stereo not given),13%,>57

# Overlap with the part before: 6 entries, followed by the next part.
SMILES,LT uptake inh,Prx2 Sm inh
COc1cc(Cn2cnnn2)ccc1O,-3%,>57
Cc1cc(C)n2nc3nc(N4CCCC4)nc(-c4ccccc4)c3c2n1,2%,>57
COC(=O)c1[nH]c2ccc(C)cc2c1NC(=O)CN1CCCc2ccccc21,-17%,>57
COc1ccc(-c2nc(CS(=O)CC(=O)NCc3ccco3)c(C)o2)cc1 (stereo not given),5%,>57
O=c1[nH]c(N2CCc3ccccc3C2)nc2c1CCCC2,9%,>57
CC1CN(c2cc3nccnc3cc2F)CC(C)O1 (stereo not given),13%,>57
CCN1CCCC1CNC(=O)c1ccc(N2CCCC2=O)cc1 (stereo not given),-1%,>57
COC(=O)c1[nH]c2ccccc2c1NC(=O)CN1CCN(C/C=C/c2ccccc2)CC1,?,>57
COc1ccc(-n2nc3cc(C)c(NC(=O)C(C)C)cc3n2)cc1,-4%,>57
CC1Cc2cc(C3(O)C(=O)c4ccccc4C3=O)ccc2N1 (stereo not given),2%,>57
COc1ccc(C=O)cc1OC,-2%,nt
O=C(Cc1ccc(Br)cc1)c1ccc(O)cc1O,0%,nt
COc1ccc(OC)c(S(=O)(=O)N2CCC(C(=O)NCc3ccccc3OC)CC2)c1,-2%,>57
Cc1nc2ccc(Br)cn2c(=O)c1Cl,-5%,nt
COC(=O)c1ccccc1NC(=O)c1ccccc1OC,-10%,>57
CCN1CCN(c2ncc3c(n2)CC(c2cc(OC)c(OC)c(OC)c2)CC3=O)CC1 (stereo not given),-6%,>57
CCOC(=O)Cn1c(C)c(C#N)c2ccccc21,-11%,>57
CCCn1c(CCC(=O)O)ccc1-c1ccc(F)cc1,?,>57
O=C1NCCCC1C(=O)N1CCN(C(c2ccccc2)c2ccccc2)CC1 (stereo not given),9%,nt
c1ccc(CCNc2nc3ccccc3n3nnnc23)cc1,7%,>57
O=C(Nc1ccncc1)c1cc2ccccc2o1,-5%,>57
COc1ccc(C2C(C(C)=O)=C(O)C(=O)N2c2cccnc2)c(OC)c1 (stereo not given),2%,>57
CSc1nc2ccc(S(=O)(=O)N3CCc4ccccc43)cc2s1,-1%,>57
Cn1nnc2cc(C(=O)N3CCCCCC3)ccc21,?,>57
O=C(NCc1ccco1)c1cc2ccccc2c(=O)o1,18%,>57
COc1cccc(-c2cc(C(=O)NCCc3ccccc3)no2)c1,23%,>57
O=C(Nc1ccc2c(c1)OCO2)c1nn(-c2ccccc2)c(=O)c2ccccc12,-30%,>57
CCOC(=O)CC(=O)CSc1nc(C)nc2c1oc1ccccc12,nt,>57
CCOC(=O)c1ccn(-c2nc(-c3ccco3)cc(C(F)(F)F)n2)n1,-27%,>57
CNC(=O)c1cc2c(=O)n3cc(C)ccc3nc2n(C(C)C)c1=N,?,>57
CC(=O)Nc1ccc(S(=O)(=O)N2CCSC2c2ccccc2Cl)cc1 (stereo not given),-11%,>57
O=C(NCc1ccc2[nH]c3c(c2c1)CCCC3)N1CCOCC1,1%,>57
CCOC(=O)CN1C(=O)C(CC)Oc2ccc(Cl)cc21 (stereo not given),-9%,>57
CCN(CC)S(=O)(=O)c1cc(C(=O)Nc2ccncc2)ccc1Cl,-11%,>57
CN(C)/C=N/c1c(C#N)cnn1-c1ncnc2sc(-c3ccccc3)cc12,-23%,>57
COC1=CC(=O)O[C@@H](/C=C\c2ccccc2)C1,2%[3.58 µM],>57
Cc1cc(-c2nnc(SCC(=O)NC3CCCC3)o2)no1,-5%,>57
Cc1cc2ncn(C(=O)N3CCOCC3)c2cc1C,14%,>57
CNC(=O)C1CCC(=O)N1Cc1ccc(C)cc1 (stereo not given),2%,>57
CCOc1ccccc1NC(=O)N1C2CCCC1CC(NC(=O)C1CC1)C2 (stereo not given),0%,>57
NC[C@@H](Cc1ccccc1)P(=O)(O)O,8%[8 µM],>57

# Bioassay records deposited in PubChem BioAssay by National Center for Advancing Translational Sciences (NCATS).
